Screening results deposited in PubChem by National Center for Advancing Translational Sciences (NCATS).
Anthrax LT inh: blocks cellular internalization of anthrax lethal toxin | 70,000 compounds, 0.67% hits | AID 912 | Potency, µM (titrated, usually from 40 µM), without a hit: top-dose activity change, negative = inhibition, most hits filed as inhibitors | Cells, anthrax lethal toxin internalization, FRET ratio (460/530); active = well fitted falling ratio curve with the 530 nm signal flat; inconclusive = other ratio curves, or a change in one channel alone; inactive = flat curves in the ratio and both channels; the % refers to the ratio; also: % is scaled to controls: 0 for no effect and ±100 for the full control effect; nearly all actives have a fitted effect of over 50% in size; tested in ME-180 cells; beta-lactamase reporter
SmPrx2 inh: inhibitors of Schistosoma mansoni peroxiredoxin 2; 65,000 compounds, 0.07% hits; S. mansoni Prx2 activity coupled to TGR/GSH (TGR is thioredoxin glutathione reductase), NADPH fluorescence loss, qHTS; some inactives read as strong as hits; Potency, µM; active means full or partial inhibition curve with a strong effect at the top dose; inconclusive means weaker partial or single-point curve; inactive means no accepted curve; also: series up to 57 µM; many of its hits are not listed in these tables
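qHTS, coupled TGR/Prx2 format; 15 min compound preincubation at RT; reaction started with H2O2 (2.5 mM aliquot); kinetic NADPH fluorescence decrease, ex 365/em 450 nm.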
* hit, by the source's call; i = inactive; ? = inconclusive; . = no result given; & = joins results of further samples; [ ] = remark or other dose. Potency is read from the fitted curve at half-maximal effect.

canonical_smiles,Anthrax LT inh,SmPrx2 inh
COc1ccc(S(=O)(=O)N(CC(=O)NCC2CCCO2)c2ccccc2)cc1OC (configuration not stated),-12%,>57
COc1ccc(-c2nnc(NC(=O)c3ccc(S(=O)(=O)N4COCC4(C)C)cc3)o2)cc1,12%,>57
CCCCOc1ccc(-c2nnc(-c3ccncc3)o2)cc1,15%,>57
Cc1nn(C(=O)c2cccs2)c(C)c1CN1C(=O)c2ccccc2C1=O,-9%,>57
Cc1nn(Cc2ccccc2)c(C)c1NC(=O)c1cc(-c2cccs2)on1,-16%,>57
c1ccc2c(c1)[nH]c1c(N3CCCC3)ncnc12,?,>57
Cc1cc(N2CCCCC2)n2nc(C)c(-c3ccccc3)c2n1,.,>57
Fc1ccc(Nc2ccnc(-c3ccc4c(c3)OCO4)n2)cc1,?,>57
CSc1nnc(-c2ccccc2)o1,0%,>57
Cc1cccc(CN2CCN(C(=O)c3ccccc3F)CC2)c1,-7%,>57
COC(=O)CCC(=O)Nc1ccccc1C(N)=O,-9%,>57
CC(C)Oc1ccc(Cc2c(O)[nH]c(=O)[nH]c2=O)cc1,8%,>57
COc1cccc(N(C(=O)CNC(=O)c2ccco2)C(C(=O)NC2CCCC2)c2ccncc2)c1 (configuration not stated),3%,>57
Cc1cccc(N(C)C(=O)c2cc3cc4ccc(C)cc4nc3o2)c1,?,>57
O=C(Nc1nnc(SCC(=O)N2CCCCC2)s1)c1cccs1,0%,>57
CCc1nnc(SCC(=O)Nc2ccccc2)nc1CC,-20%,>57
Cc1ccc(-c2noc(CN(C(=O)C34CC5CC(CC(C5)C3)C4)C(C)C)n2)cc1,-2%,>57
CCC(=O)c1ccc2c(c1)N(CCCN(C)C)c1ccccc1S2,?,>57
FC(F)(F)c1ccccc1-c1nc(N2CCNCC2)c2ccccc2n1,4%,>57
COC(=O)c1nnn(CC(=O)Nc2cccc(Cl)c2C)c1C(=O)OC,-5%,>57
NC[C@](O)(CS(=O)(=O)O)c1ccc(Cl)cc1,-8%&-1%,>57&>57
CCn1c(SCC(N)=O)nnc1-c1ccc2[nH]c(C)c(C)c2c1,6%,>57
CC(=O)Oc1c2occc2cc2ccc(=O)oc12,-3%,.
COc1ccccc1-c1c(C)c(C)nc(N)c1C#N,-9%,>57
COC(=O)CSc1nc2sc(C)c(C)c2c(=O)n1C,8%,>57
O=C(NCCc1ccncc1)Nc1ccccc1,8%,>57
O=C(c1ccccc1)N1CC(COc2ccccc2)OC(c2cccnc2)O1 (configuration not stated),1%,>57
CCOc1cc2[nH]c(=O)n(CCc3ccc(OC)c(OC)c3)c(=O)c2cc1OCC,-7%,>57
O=C(NCCCN1CCCC1=O)c1ccc2c(c1)NC(=O)C(N1CCOCC1)S2 (configuration not stated),-7%,>57
CCOC(=O)C1=C(C)Nc2ncnn2C1c1cc(Br)ccc1F (configuration not stated),?,>57
O=C(Nc1cnccn1)c1cccc(C(F)(F)F)c1,-12%,>57
CCOC(=O)c1cc2c(ccn2C)n1Cc1ccccc1C,-11%,>57
c1ccc(Nc2cc(-c3ccccc3)nc3ncnn23)cc1,-6%,>57
Cc1cccc(OCC(=O)Nc2ccccc2N2CCCCC2)c1,?,>57
ON=C1CCCCC1,0%,.
O=C(c1ccc(C(=O)N2CCN(c3ccccc3F)CC2)nc1)N1CCN(c2ccccc2F)CC1,-1%,>57
COC(=O)CSc1nc(N2CCCCC2)c2c(c1C#N)CCCC2,.,>57
COc1cccc(NC2=NC3(CCCCC3)N=C(N)N2)c1,-5%,>57
CS(=O)(=O)N(CC(=O)NCc1ccc2c(c1)OCO2)c1ccc(Cl)cc1,6%,>57
O=C(CCSc1nc(-c2ccco2)cc(C(F)(F)F)n1)NCc1ccccn1,-9%,>57
CCOC(=O)Cc1csc(NC(=O)COc2ccccc2)n1,-9%,>57
Cc1cc(S(=O)(=O)NC2CCCCC2)c(C)s1,-3%,?
COC(=O)c1cc(NC(=O)C23CCC(C)(C(=O)O2)C3(C)C)cc(C(=O)OC)c1 (configuration not stated),-13%,>57
NC(=O)CN1CCCN(S(=O)(=O)c2ccc(Br)cc2)CC1,2%,>57
O=C(O)C1CCCN(S(=O)(=O)c2cccc3cccnc23)C1 (configuration not stated),0%,>57
CCCNC(=O)c1cccc(Cn2nc(C)c(Br)c2C)c1,-5%,>57
CCSc1nnc(NC(=O)c2cc(C)on2)s1,-3%,>57
Cn1cnc2c1c(=O)n(Cc1c(Cl)cccc1Cl)c(=O)n2C,-4%,>57
CN(C)CCC(=O)c1ccc2c(c1)OCO2,0%,>57
O=C(CN1CCN(Cc2ccccc2F)C1=O)NCCN1CCOCC1,2%,>57

Other records follow:
canonical_smiles,Anthrax LT inh,SmPrx2 inh
Cc1c(CN2CCCCC2)c(O)n(CCCO)c(=O)c1C#N,-2%,>57
O=C(OCC(=O)N(C1CCCCC1)C1CCCCC1)c1ccncc1,-16%,>57
CCCc1[nH]nc2c1C(c1ccc(OCCN3CCOCC3)c(OC)c1)C(C#N)=C(N)O2 (configuration not stated),12%,>57
COc1ccc(CNS(=O)(=O)c2ccc(OC)cc2)cc1,-14%,>57
CC[C@@H]1[C@@H]2C[C@H]3[C@H]4N(C)c5ccccc5[C@@]45C[C@@H]([C@@H]2[C@@H]5O)N3[C@H]1O,-4%[3.58 µM],>57
CCCC[S@@](=N)(=O)CC[C@@H](N)C(=O)O,3%&5%,>57&>57
CCOC(=O)c1ccc(N=c2sc(C(=O)OC)cc(=O)n2CCCN2CCOCC2)cc1,-11%,>57
Cc1ccccc1[C@@H](OCCN(C)C)c1ccccc1,3%[3.58 µM],>57&>57
COc1cccc(N2C(=O)c3ccncc3C2=O)c1,10%,>57
COc1ccc(CCNC(=O)Cn2cnc3c(nnn3Cc3ccc(C)cc3)c2=O)cc1OC,2%,>57
Nc1nc(NC(=O)CCCC(=O)O)nn1-c1ccccc1,1%,>57
COc1cc(C(=O)O)c([N+](=O)[O-])c(OC)c1OC,?,>57
Cc1ccc2c(c1)c(C)cc(=O)n2CCC(=O)O,2%,>57
CN1CCN(c2ncncc2-c2cccnc2)CC1,-16%,>57
CCOc1ccc(-c2nc(C#N)c(N3CCCCCC3)o2)cc1,?,>57
Cc1[nH]c2ccccc2c1-c1cc(-c2cc(-c3c(C)[nH]c4ccccc34)nc(N)n2)nc(N)n1,-9%[8 µM],>57
COC(=O)c1ccc(C(NC(=O)OCc2ccccc2)/C(=C/[C@@H](C)C(=O)NCc2cc(C)on2)c2cccnc2)cc1 (some centres not stated),4%,.
CCOCC(=O)Nc1nnc(COc2ccc(Cl)cc2)s1,-8%,>57
COc1ccccc1-c1nc(N(C)Cc2ccco2)c2ccccc2n1,?,>57
Clc1ccc(CSc2ncnc3c2ncn3[C@@H]2CCCCO2)cc1,-7%[8 µM],>57
CC1CCCN(c2nc3c(c(=O)[nH]c(=O)n3C)n2CCSc2ncccn2)C1 (configuration not stated),-1%,>57
Cn1cc(-c2nc3cnc(Oc4ccccc4)nc3n(CCC#N)c2=O)c2ccccc21,?,>57
COc1ccc(-c2cnnn2-c2ccc(NC(=O)c3ccco3)cc2)cc1OC,?,>57
COc1cc(C(=O)Nc2cc(Cl)ccc2C)c(-n2cnnn2)cc1OC,9%,>57
COc1ccc(C2C=C(c3ccc(C)c(C)c3)Nc3ncnn32)c(OC)c1OC (configuration not stated),?,>57

Sorted by formula weight (ascending): part of the list above
canonical_smiles,Anthrax LT inh,SmPrx2 inh
Cc1c(CN2CCCCC2)c(O)n(CCCO)c(=O)c1C#N,-2%,>57
CC[C@@H]1[C@@H]2C[C@H]3[C@H]4N(C)c5ccccc5[C@@]45C[C@@H]([C@@H]2[C@@H]5O)N3[C@H]1O,-4%[3.58 µM],>57
Clc1ccc(CSc2ncnc3c2ncn3[C@@H]2CCCCO2)cc1,-7%[8 µM],>57

(next part)
canonical_smiles,Anthrax LT inh,SmPrx2 inh
Cc1c(C(=O)NCc2ccc3c(c2)OCO3)oc2ccccc12,?,.
CCCN(CCC)C(=O)Cn1ccc(=N)c2ccccc21,3%,>57
CN1CCC(N2CC3CC(C2)c2cccc(=O)n2C3)CC1 (configuration not stated),2%,>57
Cc1ccc(NC(=O)COc2ccc3oc4c(c3c2)CCCC4)nc1,-12%,>57
CCn1c(SCC(=O)NCc2ccc3c(c2)OCO3)nnc1-c1cccs1,11%,>57
Cn1c(=O)[nH]c(=O)c2c1nc(Br)n2CCSc1nc2ccccc2o1,-2%,>57
O=S1(=O)OC(c2ccc(O)cc2)(c2ccc(O)cc2)c2ccccc21,?,>57
O=C(Nc1cccc(F)c1)N1CC[C@@]2(CCCN(C(=O)c3ccncc3)C2)C1,?,>57
O=c1c2[nH]c3ccccc3c2ncn1Cc1cccnc1,4%,>57
Cn1c(Cc2ccccc2)nnc1SCC(=O)NC1CCCCC1,2%,.
C[C@@]12CC[C@H]3[C@H](CCC4=CC(=O)CC[C@H]43)[C@H]1CC[C@H]2OC1(O)C(=O)c2ccccc2C1=O,-2%[8 µM],i
Cc1cccc(C)c1NC(=O)Cn1c(=O)n(CCCC(=O)NCc2ccco2)c(=O)c2sccc21,-6%,>57
CCSC1=C(C#N)C(c2ccc(OC)c(OC)c2)CC(=O)N1 (configuration not stated),8%,>57
CCOC(=O)C(C)On1c(SC(C)C(=O)OCC)nc2ccccc2c1=O (configuration not stated),6%,>57
C[N+](C)(C)CC[N+]1(C)Cc2c(Cl)c(Cl)c(Cl)c(Cl)c2C1,-7%,>57
CCN1C(=O)c2c(C)nc3ccccc3c2C1=O,4%,>57
COc1cccc(OC)c1C(=O)Nc1ccccc1N1CCCC1,-7%,>57
O=C1c2ccccc2S(=O)(=O)N1CC(O)Cn1ccc2ccccc21 (configuration not stated),-9%,>57
N#Cc1nc(-c2ccc(OCc3ccc(Cl)cc3)cc2)oc1N1CCC(C(N)=O)CC1,3%,>57
Cc1ccc2[nH]c(=O)c(-c3noc(-c4ccncc4)n3)cc2c1,-7%,>57
COC(=O)[C@@]1(Cc2ccccc2)[C@H]2c3cc(C(=O)N(C)C)n(Cc4nc5ccccc5[nH]4)c3C[C@H]2CN1C(=O)c1ccccc1,?,>57
COc1ccccc1NC(=O)C1C2C=CC3(CN(Cc4cccnc4)C(=O)C13)O2 (configuration not stated),-1%,>57
COc1cc(NC(=O)CN2C(=O)c3ccccc3S2(=O)=O)c(OC)cc1Cl,?,>57
Cc1occc1-c1nnc(SCC(=O)N2CC(=O)Nc3ccccc32)n1CC(C)C,-9%,>57
COc1ccc2c(c1OC)C(=O)NC(C)=C(C(=O)OC(C)(C)C)C2O (configuration not stated),22%,>57
Cc1sc2nc(CN3CCOCC3)nc(N3CCC(C(N)=O)CC3)c2c1C,6%,>57
CCn1c(=O)c2c(nc3n2CCCN3CCc2ccccc2)n(C)c1=O,.,>57
COc1ccc(C(=O)NCC(=O)Nc2ccccc2)cc1OC,-4%,>57
CCOC(=O)Nc1nc(C)c(C(=O)N(C)C)s1,8%,>57
COc1cccc(Nc2ncc3nc(-c4cccs4)c(=O)n(CCC#N)c3n2)c1,?,>57
CCc1nc2oc(C(=O)c3ccccc3)c(N)c2c2c1COC(C)(C)C2,?,>57
COc1ccc(Br)cc1C1CC(=O)N2CN(C)CSC2=C1C#N (configuration not stated),-12%,>57
Cc1nc2ccccc2c(=O)n1NCc1cccs1,?,>57
O=C(c1ccc(N2CCCC2=O)cc1)N1CCOCC1,5%,>57
C[C@@]12CCC3c4ccc(OC5C=CC(c6ccccc6)OC5CO)cc4CCC3C1CCC2=O (some centres not stated),?,.
COc1ccc(Cl)cc1NC(=O)N1CCN(C2CCCCC2)CC1,1%,>57
Cc1cc(C(=O)COC(=O)CN(C)S(=O)(=O)c2ccc(Cl)cc2)c(C)n1Cc1cccs1,?,>57
COc1ccc(OC)c(C(c2nnnn2CC2CCCO2)N2CCN(C)CC2)c1 (configuration not stated),0%,>57
O=c1ccn(Cc2ccccc2Cl)cc1,-2%,>57
COc1cccc(-c2cc(C(=O)Nc3c(C)nn(Cc4ccccc4C)c3C)no2)c1,?,>57
Cc1ccc(S(=O)(=O)N[C@H]2COC(=O)[C@@H](C)COC(=O)[C@H](C)NC(=O)C/C=C\[C@H]2C)cc1,-5%[8 µM],.
CCC(C)OC(=O)C1=C(C)NC2=C(C(=O)C(C(=O)OC)C(C)C2)C1c1ccc(N(C)C)cc1 (configuration not stated),6%,>57
NS(=O)(=O)c1cccc2c1c([N+](=O)[O-])cc1nc(O)c(O)nc12,?,>57&>11
CCOc1ccc(OCC)c(NC(=O)CC2Oc3ccc(C)cc3NC2=O)c1 (configuration not stated),-8%,>57
c1coc(C2Nc3ccccc3-c3nc4ccccc4n32)c1 (configuration not stated),?,>57
CN(CCc1ccc(Cl)c(Cl)c1)C[C@@H](O)COc1ccc(NS(C)(=O)=O)cc1,?,>57

An excerpt of the results above:
canonical_smiles,Anthrax LT inh,SmPrx2 inh
c1coc(C2Nc3ccccc3-c3nc4ccccc4n32)c1 (configuration not stated),?,>57
CN(CCc1ccc(Cl)c(Cl)c1)C[C@@H](O)COc1ccc(NS(C)(=O)=O)cc1,?,>57

These rows are one share of the data. The share of hits here may be higher or lower than overall.
